# Screening data as filed in PubChem.
# HCMV UL50-53 inh = inhibitors of HCMV UL50-UL53 nuclear egress complex interaction. HTRF UL50-UL53 interaction, normalized percent inhibition. inhibition, % (concentration not given with the values). actives 0.15% (n = 190,000);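 active = both replicates at 50% or more, plus weaker picks with an unusually low signal ratio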;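 note: stock transfer was 100 nL into about 20 µL; 0% = negative control wells and 100% = wells with untagged competitor protein; inactives centre near -12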
# GIV-Gai inh = GIV-Galpha-i interaction inhibition | P08753 | Galpha-i3/FITC-GIV peptide fluorescence polarization, 90 min; hits give low values; scaled: aluminum fluoride 0%, vehicle 100% | percent of control (FP), % (no concentration beside the values) | actives 0.42% (n = 210,000) | AID 1224905;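 active = replicate mean at 85% of control or lower, very high polarization wells dropped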;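 note: wells of about 15 µL received 100 nL stock; the first replicate is given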
# Target sequence (P08753 whole entry, looked up): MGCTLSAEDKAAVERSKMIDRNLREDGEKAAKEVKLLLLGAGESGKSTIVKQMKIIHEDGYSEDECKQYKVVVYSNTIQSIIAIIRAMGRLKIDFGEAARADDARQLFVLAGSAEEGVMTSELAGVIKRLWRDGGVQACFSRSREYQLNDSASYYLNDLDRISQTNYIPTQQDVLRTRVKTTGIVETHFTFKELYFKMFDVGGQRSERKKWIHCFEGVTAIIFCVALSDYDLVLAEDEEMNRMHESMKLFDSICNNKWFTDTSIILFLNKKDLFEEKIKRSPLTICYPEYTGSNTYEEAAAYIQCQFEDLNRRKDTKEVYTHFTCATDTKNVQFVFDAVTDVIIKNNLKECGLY
# Sa growth inh = S. aureus growth inhibition | relative growth, % (concentration not given with the values) | S. aureus RN4220 growth, OD600, 20 h, 42 °C; hits give low values | AID 720641 | actives 0.53% (n = 170,000);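 active = growth at 42 °C up to 50% and 20 or more points under that at 30 °C, or under 10% at both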;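 note: 300 nL library stock went into each well; scaled to the means of positive and negative controls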
# Sa growth inh second temp = further read-out of Sa growth inh, marked with its call; relative growth, %; measured here: growth at 30 °C;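 optical density after 20 h as mean of two plates; 100% = untreated growth and lower means inhibition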
# Numbers without * were called inactive; nt = not tested or not shown; & = joins results of further samples.
SMILES,HCMV UL50-53 inh,GIV-Gai inh,Sa growth inh,Sa growth inh second temp
Cc1ccc(COc2ccc3oc(-c4ccccc4)c(C(=O)O)c3c2)cc1,-24,98,80,54
CCOC(=O)C1CCN(C(=O)c2ccccc2NS(=O)(=O)c2cccs2)CC1,-15,nt,101,92
O=C(CCSc1nnc(-c2ccc(O)cc2)o1)N1CCCCC1,-16,104,81,75
COc1ccc(CCNC(=O)/C=C2\SC(=O)NC2=O)cc1,-54,100,70,54
O=C(NC1CCCCC1)N1CCC(c2nc3ccccc3[nH]2)CC1,-6,97,103,86
CCC(C(=O)Nc1ccc(C(=O)OC)cc1)n1c(=O)c(-c2ccccc2NC(C)=O)nc2ccccc21 (stereo unspecified),17,99,93,88
CSc1cc(-c2ccc(Cl)cc2)c(C(=O)O)s1,-19,101,nt,nt
Cc1ccc(-n2c(SCC(=O)NCCC3=CCCCC3)nc3n[nH]c(C)c3c2=N)cc1Cl,-33,105,81,96
COc1ccccc1NC(=O)N1CCN(c2nc3cccnc3s2)CC1,8,103,nt,nt
CC1(C)NC(=O)N(CC(O)COc2ccc(N3C(=O)C4CC=CCC4C3=O)cc2)C1=O (stereo unspecified),-10,103,nt,nt
Cc1nn(CCCN)cc1Cl,-7,106,108,80
CCOc1ccc(-c2cc3nc(C4CCN(C(=O)OC(C)(C)C)CC4)c(C(=O)Nc4c(C)cccc4C)cn3n2)cc1,-22,103,112,80
COc1ccc(C(=O)N(CCC(=O)N2CCNCC2)CC2CCCO2)cc1 (stereo unspecified),-5,103,nt,nt
CC(=O)Nc1ccc(-c2ccc3nnc(C)n3n2)cc1,-123,106,87,83
Cc1cc(C)c2c(c1)/C(=c1/sc3n(c1=O)CN(c1cccc(Br)c1)CN=3)C(=O)N2,nt,104,92,88
O=C1c2cccc3cccc(c23)C(=O)N1CCN1CCN(C(=O)C2(S(=O)(=O)c3ccccc3)CC2)CC1,-49,101,nt,nt
CCNc1nc(=S)[nH]c2ccccc12,-26,nt,76,76
COC(=O)c1ccc2c(c1)N(C)S(=O)(=O)/C(=C\N(C)C)C2=O,-28,141,97,91
Cc1ccc(S(=O)(=O)N2CCCC(c3nc(-c4ccccn4)no3)C2)cc1 (stereo unspecified),-15,98,nt,nt
COc1ccc(-n2c(C)nc3ncnc(-c4ccccc4)c32)cc1,-7,100,nt,nt
CCc1cccc(NC(=O)C2c3ccccc3C(=O)N(C)C2c2cn(C)c3ccccc23)c1 (stereo unspecified),nt,101,92,92
Cc1cccc(Cn2c(=O)n(-c3ccc(Cl)c(Cl)c3)c(=O)c3c(C)c(C)sc32)c1,-5,97,109,86
Cn1nc(C(F)(F)F)cc1C(=O)Nc1ccc(Cl)cc1,-6,113,112,74
Cc1nc(N(C)C)cc(N2CCN(C(=O)c3ccccc3Cl)CC2)n1,3,102,nt,nt
COc1ncccc1C(=O)Nc1ccc(F)cc1F,-28,105,91,86
CC(=O)N(CN1C(=O)C2CC=CCC2C1=O)c1ccccc1 (stereo unspecified),nt,99,95,83
CC1=C(C(=O)Nc2ccc(C)cc2C)C(c2ccc(C(C)C)cc2)n2nc(C(F)(F)F)nc2N1 (stereo unspecified),-1,95,85,96
CCn1c(SCc2cc(=O)oc3cc(NC(C)=O)ccc23)nnc1-c1ccccc1,-99,nt,78,89
CCOc1ccccc1CNC(=O)C1CCN(S(=O)(=O)c2cccc3nonc23)CC1,nt,105,95,93
Cc1ccccc1C(=O)N/N=C/c1ccccc1,-12,nt,103,82
COc1ccc(C(=O)Nc2cccc(-c3nc4cccnc4s3)c2C)c(OC)c1,4,110,89,92
N#Cc1c(NC(=S)Nc2ccccc2)sc2c1CCC2,-6,nt,76,60
CCOc1ccccc1N(C)C(=O)C1CCCN(c2ncnc3onc(-c4ccc(F)cc4)c23)C1 (stereo unspecified),-4,108&103,91,89
COc1ccc(CC(=O)Nc2ccccc2N2CCOCC2)c(OC)c1,-24,nt,105,90
Cc1ccc(-c2ccc(=O)n(Cc3nnc(SCC(=O)N4CCCc5ccccc54)o3)n2)cc1,-48,100,nt,nt
CC(=O)Nc1sc2c(c1CN1CCN(c3ccccn3)CC1)CCCC2,nt,99,97,72
Cc1noc(C)c1C(=O)OCC(=O)N1CCCC1=O,-18,nt,80,85
O=C(CN1C(=O)C(c2ccccc2)Oc2cccnc21)NCCCN1CCCCC1 (stereo unspecified),nt,102,106,94
O=C(CCn1c(=O)oc2ccccc21)Sc1ccc(Cl)cc1Cl,-33,106,114,58
O=C(NNc1nc2ccccc2s1)Nc1ccccc1,-11,107,98,92
CN(C)/C=C/C=C1\CCc2ccccc2C1=O,nt,-73*,86,53
CCOC(=O)c1cn(-c2ccc(Cl)cc2)nc1C(F)(F)F,5,nt,121,97
Cn1c(=O)c2c(nc(Oc3ccccc3Cl)n2Cc2ccc(C#N)cc2)n(C)c1=O,-12,101,101,94
CCN(CC)S(=O)(=O)c1ccc(-n2c(=O)c(C(C)C)c(C)n2C)cc1,-9,95,97,89
Cc1cc(C)cc(CC2CC(=O)N(CCc3ccc4c(c3)OCO4)C2=O)c1 (stereo unspecified),nt,104,97,90
COCCCNC(=O)Nc1nc2c(s1)CCCCCC2,-14,100,nt,nt
COc1ccccc1NC(=O)CSc1ncnc2c1nnn2Cc1ccccc1,nt,103,116,85
Cc1ccc(N=C2C(=O)N(C)c3ccccc32)cc1,-12,98,nt,nt
FC(F)(F)c1ccccc1-n1c(-c2ccco2)n[nH]c1=S,-7,102,120,84
CCOC(Cn1c(SCC#N)nc2ccccc2c1=O)OCC,nt,99,96,82
COc1ccccc1CNC(=O)c1ccccc1N(C)S(C)(=O)=O,-6,106,103,94
CCc1ccc2oc(-c3ccc(NC(=O)c4cc(OC)c(OC)c(OC)c4)cc3)nc2c1,-48,101,93,81
CC(=O)c1ccc(NC(=O)CCCSc2nc(-c3ccco3)cc(C(F)(F)F)n2)cc1,8,108,82,101
O=C(Nc1cccc(Br)c1)c1ccc(Nc2ccnc(-c3ccc(F)cc3)n2)cc1,-13,104,nt,nt
COc1ccc(C(=O)NNc2ncnc3c2cnn3-c2ccc(C)cc2C)cc1,nt,96,106,93
CCN(CC)C(C(=O)O)c1ccccc1 (stereo unspecified),8,108,96,103
O=C(NC(=O)c1cn2cc(C(F)(F)F)cc(Cl)c2n1)Nc1ccc(Cl)cc1,-18,106,95,86
CC(C)c1ccc(C(=O)Nc2ccccc2C#N)cc1,-4,99,102,99
CCOC(=O)C1CCCN(C(=O)c2ccc(OCC)cc2)C1 (stereo unspecified),-35,103,94,98
CCN1C(=O)c2ccccc2Sc2ccc(NC(=O)N3CCN(c4cc(C)ccc4C)CC3)cc21,-4,96,115,100
# Going on with the list:
SMILES,HCMV UL50-53 inh,GIV-Gai inh,Sa growth inh,Sa growth inh second temp
CCNc1nc(NCc2ccc(F)cc2)c2cnn(C)c2n1,nt,103,96,90
COC(=O)c1cc2sc(C)cc2n1Cc1nc(-c2cccc(Br)c2)oc1C,-17,108,106,90
CSc1nnc(CNC(=O)OC(C)(C)C)n1C,13,103,112,98
CC(Sc1nnc(N)s1)C(=O)NC(C)C1CC2CCC1C2 (stereo unspecified),-13,nt,107,101
O=C(c1ccccc1F)N1CCC(c2nc3c(nnn3Cc3cccc(F)c3)c(=O)[nH]2)CC1,-15,101,92,92
Cc1ccc(-c2nnc3ccccc3c2C(=O)N(C)Cc2ccccc2)cc1,-61,99,nt,nt
N#Cc1ccc(Oc2ccccc2)cc1C#N,-12,99,111,74
Cc1cc2n(n1)CCCN2C(=O)CCC(=O)N1CCCCCC1,-11,111,97,96
CCn1c(=O)c2c(C(=O)NC3CCCCC3)cc(=O)n(CC)c2n(C)c1=O,-11,115,nt,nt
COc1ccc(C2=C(N3CCN(c4cc(C)ccc4C)CC3)c3ccccc3C2=O)cc1,-8,104,109,88
NC(=O)c1ccccc1Nc1cccc(C(F)(F)F)c1,-8,97,103,85
Brc1ccc(-c2nn3c(-c4cccnc4)nnc3s2)cc1,-1,102,nt,nt

# Looked up above.
# Result for `N#Cc1ccc(Oc2ccccc2)cc1C#N` in Sa growth inh second temp: 74
# Result for `CSc1nnc(CNC(=O)OC(C)(C)C)n1C` in HCMV UL50-53 inh: 13

# Continued.
SMILES,HCMV UL50-53 inh,GIV-Gai inh,Sa growth inh,Sa growth inh second temp
CC(C)N1C(=O)CNC1=S,-20,105,88,81
CCOc1ccc(CNC(=O)c2cc(-c3ccc(Cl)s3)nc3ccccc23)cc1,-9,104,86,86
Cc1ccccc1Nc1nc2ccccc2s1,-14,nt,141,95
Cc1nn(-c2ccccc2)c2c1N(CC(=O)NCc1ccc(N(C)C)cc1)C(=O)CS2,nt,104,93,93
COc1ccc(CCN2C(=O)CC(Sc3ccccc3C(=O)O)C2=O)cc1OC (stereo unspecified),nt,107,95,75
COc1ccc(NC(=O)c2cccc3c(=O)c4c([nH]c23)CCCC4)cc1,-5,98,107,91
S=c1nc(-c2cccs2)[nH]c2ccccc12,-25,nt,90,90
Cc1ccc(C)c(OCCCCn2nnc3ccccc32)c1,nt,102,92,68
CSCCC(C(=O)Nc1cccnc1)N1C(=O)c2ccccc2C1=O (stereo unspecified),-12,nt,77,92
FC(F)(F)c1cccc(Nc2ncnc(-n3cccc3)n2)c1,1,101,105,105
Cc1nn(-c2cccc(C(F)(F)F)c2)c2c1cnn2-c1nc2ccccc2o1,-24,nt,85,86
Cc1cccc(OCC(=O)Nc2ccccc2OCc2cc(=O)n3ccccc3n2)c1,nt,103,95,93
O=C(Sc1ccc(C(F)(F)F)cn1)/C(=C\c1cccs1)c1ccsc1,-44,108,102,84
CC1=NN(c2cc(C)nc(-c3ccccc3O)n2)C(=O)C1,-1,102,121,87
O=C(NCC(c1ccc2c(c1)OCO2)N1CCN(c2ccccc2)CC1)c1ccc(F)c(F)c1 (stereo unspecified),nt,98,127,88
CCN(CC)C(=O)Cn1cc(/C=C(\C#N)C(=O)N2CCN(c3ccccc3)CC2)c2ccccc21,-49,107,118,87
Cc1cccc(N2CCN(C(=O)Cn3nc(C)c4sc5ccccc5c4c3=O)CC2)c1C,-10&-26,101&102,116,85
O=C1CCC(=O)N1c1cc(C(F)(F)F)cc(C(F)(F)F)c1,-8,105,109,89
COc1ccc(NC(=O)C2CCN(c3cnccn3)CC2)cc1Cl,-34,97,90,85
COC(=O)C1=C(C)NC2=C(C(=O)CC(c3ccc(Cl)cc3)C2)C1c1ccc(OC(C)=O)c(OC)c1 (stereo unspecified),-16,101,nt,nt
O=C(Cn1cc(SCc2ccc(C(F)(F)F)cc2)c2ccccc21)N1CCCCCC1,nt,107,134,116
CCN(CC)C(=O)C1=CC(c2ccco2)=NS(=O)(=O)N1C,-69,103,75,80
CCN(CC)CCn1c(=N)n(Cc2ccc(C(C)(C)C)cc2)c2ccccc21,nt,102,139,72
COc1cccc(CN(Cc2ccco2)c2cnc(S(C)(=O)=O)nc2C(=O)Nc2cccc(Cl)c2C)c1,-21,101,94,96

# Ordered by molar mass (descending): part of the list above
SMILES,HCMV UL50-53 inh,GIV-Gai inh,Sa growth inh,Sa growth inh second temp
COc1cccc(CN(Cc2ccco2)c2cnc(S(C)(=O)=O)nc2C(=O)Nc2cccc(Cl)c2C)c1,-21,101,94,96
COC(=O)C1=C(C)NC2=C(C(=O)CC(c3ccc(Cl)cc3)C2)C1c1ccc(OC(C)=O)c(OC)c1 (stereo unspecified),-16,101,nt,nt
CCN(CC)C(=O)Cn1cc(/C=C(\C#N)C(=O)N2CCN(c3ccccc3)CC2)c2ccccc21,-49,107,118,87
O=C(NCC(c1ccc2c(c1)OCO2)N1CCN(c2ccccc2)CC1)c1ccc(F)c(F)c1 (stereo unspecified),nt,98,127,88
Cc1cccc(N2CCN(C(=O)Cn3nc(C)c4sc5ccccc5c4c3=O)CC2)c1C,-10&-26,101&102,116,85
Cc1nn(-c2ccccc2)c2c1N(CC(=O)NCc1ccc(N(C)C)cc1)C(=O)CS2,nt,104,93,93
CCOc1ccc(CNC(=O)c2cc(-c3ccc(Cl)s3)nc3ccccc23)cc1,-9,104,86,86
Cc1cccc(OCC(=O)Nc2ccccc2OCc2cc(=O)n3ccccc3n2)c1,nt,103,95,93
O=C(Sc1ccc(C(F)(F)F)cn1)/C(=C\c1cccs1)c1ccsc1,-44,108,102,84
Cc1nn(-c2cccc(C(F)(F)F)c2)c2c1cnn2-c1nc2ccccc2o1,-24,nt,85,86
CCN(CC)CCn1c(=N)n(Cc2ccc(C(C)(C)C)cc2)c2ccccc21,nt,102,139,72
CSCCC(C(=O)Nc1cccnc1)N1C(=O)c2ccccc2C1=O (stereo unspecified),-12,nt,77,92
COc1ccc(NC(=O)c2cccc3c(=O)c4c([nH]c23)CCCC4)cc1,-5,98,107,91
COc1ccc(NC(=O)C2CCN(c3cnccn3)CC2)cc1Cl,-34,97,90,85
CCN(CC)C(=O)C1=CC(c2ccco2)=NS(=O)(=O)N1C,-69,103,75,80
FC(F)(F)c1cccc(Nc2ncnc(-n3cccc3)n2)c1,1,101,105,105
Cc1ccc(C)c(OCCCCn2nnc3ccccc32)c1,nt,102,92,68
CC1=NN(c2cc(C)nc(-c3ccccc3O)n2)C(=O)C1,-1,102,121,87
S=c1nc(-c2cccs2)[nH]c2ccccc12,-25,nt,90,90
Cc1ccccc1Nc1nc2ccccc2s1,-14,nt,141,95
